# Rango release inh: inhibitors of RanGTP-induced Rango-importin beta complex dissociation | 0.071% of 340,000 active | Biochemical FRET Rango-importin beta, RanGTP-induced dissociation | Potency, µM (top dose mostly 46.1 µM), for inactives: top-dose activity change, negative = inhibition | O95149+P62826; active means falling FRET ratio curve, often poorly fitted, with flat reads before Ran was added; inconclusive means other falling curves, or compound fluorescence or quenching; inactive means flat or rising ratio curve;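 further: potency means the concentration at half of the fitted maximal effect; % of control where 0% means no effect; nearly all actives have a fitted effect of over 45% in size; -100% = wells without RanGTP and RCC1; the record marks most hits as doubtful in a second field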
#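 Rango (0.1 uM)–importin beta (0.25 uM) complex; RanGTP-RCC1 trigger; 45 min RT; CFP/YFP FRET read.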
# miR-21 reporter: miR-21 reporter, rising signal; HeLa miR-21 FLuc reporter, luciferase, 48 h; Potency, µM (doses to about 38.3 µM), for the others: at the top dose reporter change, positive = more light; 340,000 tested, under 10 active; AID 2288; active = well fitted rising curve with a large enough effect; inconclusive = small, poorly fitted or top-dose-only effect; inactive = no such curve, though single readings can be large or run the other way;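 further: % of control where 0% means no effect; miR-21 action dims this reporter so a rising signal means less miR-21 action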
#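 Luminescence from a firefly luciferase reporter carrying a miR-21 binding site downstream, stably expressed under a CMV promoter in HeLa cells that make miR-21 endogenously, reports miRNA modulation after 48 h compound exposure up to approximately 40uM final.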
# Rango-impB inh: prevents formation of the Rango-importin beta complex | Rango CFP/YFP FRET sensor + importin beta, 45 min | Potency, µM (doses to about 92.2 µM), without a hit: top-dose inhibition of complex formation | 0.031% of 340,000 active; active = rising FRET ratio curve, often small or poorly fitted; inconclusive = mostly compound fluorescence or quenching in the first reads; inactive = flat curves in all reads;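 further: potency means the concentration at half of the fitted maximal effect; 0% = DMSO wells and 100% = buffer wells lacking importin beta; nearly all actives have a fitted effect of over 15% in size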
#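 FRET biosensor (snurportin 1 IBB flanked by EYFP and cerulean), 50 nM, with compound 5 min, then 0.125 microM importin beta in PBS, 1 mM DTT, 0.02% Tween-20, 0.1% BSA. CFP/YFP ratio read after 45 min at room temperature; pre-read flags interference.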
# GLA inh pH 4.5: blocks human alpha-galactosidase A at pH 4.5; activity change, negative = inhibition, % at 105 µM; P06280; 230,000 tested, under 10 active; purified enzyme, 4-MU-alpha-Gal fluorescence, pH 4.5; inconclusive = small, poorly fitted or top-dose-only inhibition, or a rising curve; inactive = flat fitted curve, though single readings scatter; no compound was filed as active;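 further: 0% = full activity with enzyme and -100% = basal without enzyme; dose as in the result columns while the protocol names 77 µM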
# Target sequence (P06280 whole entry, looked up): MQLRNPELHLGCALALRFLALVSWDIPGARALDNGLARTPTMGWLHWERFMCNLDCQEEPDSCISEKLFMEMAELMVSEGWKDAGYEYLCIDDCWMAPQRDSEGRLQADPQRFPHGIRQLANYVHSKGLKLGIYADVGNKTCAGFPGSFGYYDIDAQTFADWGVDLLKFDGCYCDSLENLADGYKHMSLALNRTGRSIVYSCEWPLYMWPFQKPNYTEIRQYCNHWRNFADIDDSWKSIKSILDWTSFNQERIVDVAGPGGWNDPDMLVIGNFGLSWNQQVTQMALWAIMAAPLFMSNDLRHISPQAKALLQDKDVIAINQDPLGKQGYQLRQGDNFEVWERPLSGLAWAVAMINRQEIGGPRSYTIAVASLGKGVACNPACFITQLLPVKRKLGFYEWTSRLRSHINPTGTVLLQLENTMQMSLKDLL
# Active calls of the source: *; ? = inconclusive; · = no result given; & = joins results of further samples.
SMILES,Rango release inh,miR-21 reporter,Rango-impB inh,GLA inh pH 4.5
Cn1nc(CC(=O)NCc2ccc(F)cc2)c2ccccc2c1=O,-7%,10%,-1.7%,4
Cc1ccc(NC(=O)C2CCC(CNC(=O)[C@@H]3Cc4ccccc4CN3)CC2)cc1 (some centres undefined),-3%,2%,0.4%,·
CCN1C(=O)C2(C(C(=O)c3cc4ccccc4o3)=C(O)C(=O)N2CCCN2CCOCC2)c2ccccc21 (centres undefined),-8%,1%,5.8%,-11
O=C(Nc1ccc2snnc2c1)N1CCCCC1,-4%,-24%,3.1%,-5
C[C@@H]1COC(=O)[C@H](NC(=O)OCC2c3ccccc3-c3ccccc32)C/C=C\C[C@@H](CC(=O)N[C@@H](CO)Cc2ccccc2)C(=O)N1,-13%,·,-0.6%,·
CCNC(=S)Nc1cc(C(=O)N2CCCC2)ccc1N1CCCC1,3%,4%,6.6%,5
COc1ccc(Cl)cc1NC(=O)CCc1ccccc1,3%,-5%,0.2%,8
CN1CCN(c2nc3c(c(=O)n(C)c(=O)n3C)n2Cc2ccccc2)CC1,21%,-3%,2.6%,·
Cc1cc(N)nc(C)c1C#N,69%,-4%,3.7%,2
CCC(Sc1nnc(-c2ccc(C)c(Cl)c2)n1CC)C(=O)Nc1nccs1 (centres undefined),-6%,20%,0.2%,-5
CCOC(=O)Cn1cc(C=O)c2ccccc21,2%,-3%,-0.6%,-5
CC1CC(C)CN(C(=O)CNC(=O)Cn2ccc3ccccc3c2=O)C1 (centres undefined),24%,-1%,-3.5%,1
Cc1ccc(S(=O)(=O)n2cnc3cc([N+](=O)[O-])ccc32)c(C)c1,1%,-9%,0.4%,5
COc1ccc(-n2ccn(CC(=O)Nc3ccccc3OC)c(=O)c2=O)cc1,2%,3%,-0.2%,·
CC(=O)c1cccc(S(=O)(=O)N(C)C2CCN(C)CC2)c1,9%,-2%,0.0%,7
N#C/C(=C(/O)c1ccc(Cl)c([N+](=O)[O-])c1)c1nc2ccccc2[nH]1,-4%,12%,-1.3%,2
O=C(NCc1ccccc1)c1cnsn1,17%,-2%,-2.0%,-7
COc1ccc(-c2cc(=O)[nH]c(N3CCN(Cc4ccccc4)CC3)n2)cc1,1%,0%,3.3%,·
c1ccc(Nc2nc(N3CCNCC3)nc(N3CCOCC3)n2)cc1,-1%,-15%,-0.4%,5
O=c1[nH]c2cc([N+](=O)[O-])c([N+](=O)[O-])cc2[nH]c1=O,-8%,0%,1.9%,-9&-1&-10
O=C(COC(=O)C1CCN(/C=C/C(=O)C(F)(F)F)CC1)Nc1ccccc1,-12%,-2%,0.0%,4
Cc1ccc(C2CC(c3cccs3)=NN2C(=O)CSc2nc(=O)n3cc(C)ccc3n2)cc1 (centres undefined),18%,·,0.3%,·
Oc1ccc2ccccc2c1C=Nc1ccc(N2CCOCC2)cc1,?,-14%,37µM*,-5
CC(C)(Oc1ccc(Br)cc1Cl)C(=O)Nc1ccon1,-5%,-10%,-0.1%,·
COc1cc2c(cc1OC)CN(c1ccc([N+](=O)[O-])cc1C#N)CC2,14%,-19%,2.0%,1

# Sorted by heavy-atom count (smallest number first): some entries from above.
SMILES,Rango release inh,miR-21 reporter,Rango-impB inh,GLA inh pH 4.5
Cn1nc(CC(=O)NCc2ccc(F)cc2)c2ccccc2c1=O,-7%,10%,-1.7%,4
Oc1ccc2ccccc2c1C=Nc1ccc(N2CCOCC2)cc1,?,-14%,37µM*,-5
C[C@@H]1COC(=O)[C@H](NC(=O)OCC2c3ccccc3-c3ccccc32)C/C=C\C[C@@H](CC(=O)N[C@@H](CO)Cc2ccccc2)C(=O)N1,-13%,·,-0.6%,·

# Records listed so far printed as active in Rango-impB inh.
SMILES,Rango release inh,miR-21 reporter,Rango-impB inh,GLA inh pH 4.5
Oc1ccc2ccccc2c1C=Nc1ccc(N2CCOCC2)cc1,?,-14%,37µM*,-5

# Additional entries:
SMILES,Rango release inh,miR-21 reporter,Rango-impB inh,GLA inh pH 4.5
CCOC(=O)C1CCN(C(=O)c2ccc(NS(=O)(=O)c3ccc4[nH]c(=O)[nH]c4c3)cc2)CC1,-7%,·,4.9%,·
Cc1ccc(-c2nc(C#N)c(NCCCn3ccnc3)o2)cc1,2%,-24%,0.1%,-3
O=C(CCc1c[nH]c2ccccc12)NC(Cc1ccccc1)C(=O)O (centres undefined),4%,1%,0.0%,·
CCOc1ccc(NC(=O)CN(C)C(=O)c2sccc2-c2ccccc2)cc1OCC,-5%,·,1.8%,·
CC(/C=N/Nc1nnc(C)c(=O)[nH]1)=C\c1ccccc1,-4%,-37%,3.2%,-9
COc1ccccc1C=CC(=O)C=Cc1ccccc1OC,-1%,·,1.1%,·
CCc1oc2ccccc2c1C(=O)CCN1CCCCC1,26%,-2%,-0.4%,-9
COC(=O)c1cc(C)[nH]c2c(C)cc3nc4ccccc4c3c12,?,21%,?,-9
N#C/C(=C/c1ccc(-c2ccccc2[N+](=O)[O-])o1)C(N)=O,-20%,-3%,?,?
c1ccc(CCCN2CCN(c3ccccn3)CC2)cc1,7%,-13%,-2.4%,·
OCC[C@@H]1C[C@@H](O)[C@H](O)[C@@]2(Cc3ccccc3CO2)O1,-12%,-3%,-1.1%,·
COc1ccc(/C=N/NC(=O)CSc2nnc(C)n2-c2ccccc2)c(OC)c1OC,-11%,-3%,-0.8%,6
O=C(/C=C/c1cccc(C(F)(F)F)c1)OCC(=O)N1CCN(c2ccccc2)CC1,18%,·,-3.7%,·
O=C(COC(=O)/C=C/c1cccs1)Nc1cccc(S(=O)(=O)N2CCCC2)c1,-6%,-1%,-1.4%,-9
CCN(Cc1ccccc1)C(=O)Cc1ccc(OC)c(S(=O)(=O)N2CCOCC2)c1,-4%,·,-1.1%,·
COc1ccc(N2CCN(C(=O)CN(C)S(=O)(=O)c3cc(C)ccc3OC)CC2)cc1,11%,-3%,-0.4%,5
Cc1cccc(NC(=O)Cn2c(=O)oc3ccccc32)n1,0%,-6%,-2.0%,·
Cc1cccc(N2CN(Cc3cccnc3)CNC2=S)c1,1%,-5%,-0.1%,-2
CC(=O)N1CCc2cc(C(=O)CN3CCN(C(=O)c4ccco4)CC3)ccc21,-8%,-13%,-0.4%,6
COCCCNc1oc(-c2ccccc2F)nc1C#N,-12%,-51%,-0.4%,10
CN(C)c1ccccc1-c1csc(N2CCC(C(N)=O)CC2)n1,0%,·,-2.4%,·
CC(=O)NC(c1ccc(C)cc1)c1cc(Cl)c2cccnc2c1O (centres undefined),-14%,28%,4.7%,·
CCCCC1=CC2=C(c3ccco3)C(=O)C(C)(OC(=O)c3ccc(OC)cc3)C(=O)C2=CN1c1ccc(OC)cc1 (centres undefined),?,24%,?,2&-7
COc1ccccc1/C=N/NC(=S)Nc1cccnc1,-5%,13%,-0.9%,9
COc1ccc(NC(=O)CC(C)CC(=O)NCc2ccc(F)cc2)c(OC)c1 (centres undefined),-5%,0%,0.7%,·

# Full records from above. Values in the order: Rango release inh | miR-21 reporter | Rango-impB inh | GLA inh pH 4.5
# CC(/C=N/Nc1nnc(C)c(=O)[nH]1)=C\c1ccccc1 reads -4% | -37% | 3.2% | -9
# COC(=O)c1cc(C)[nH]c2c(C)cc3nc4ccccc4c3c12 reads ? | 21% | ? | -9
# Cc1cccc(N2CN(Cc3cccnc3)CNC2=S)c1 reads 1% | -5% | -0.1% | -2
# COc1ccccc1C=CC(=O)C=Cc1ccccc1OC reads -1% | · | 1.1% | ·
# CCOC(=O)C1CCN(C(=O)c2ccc(NS(=O)(=O)c3ccc4[nH]c(=O)[nH]c4c3)cc2)CC1 reads -7% | · | 4.9% | ·

# Further results follow:
SMILES,Rango release inh,miR-21 reporter,Rango-impB inh,GLA inh pH 4.5
c1ccc(CSc2nncn2-c2ccccn2)cc1,-2%,-13%,-0.4%,2
COc1ccc2[nH]c(=O)c(CN(C(C)=O)C3CCCCC3)cc2c1,-15%,-4%,2.4%,-2
Cc1nn(C(C)C(=O)N2CCOCC2)c(C)c1[N+](=O)[O-] (centres undefined),-4%,-3%,-0.1%,3
COc1ccc(NC(=O)CCC(=O)Nc2nnc(C(C)C)s2)cc1Cl,-5%,0%,4.6%,·
O=C(Nc1nc(-c2ccc3c(c2)Cc2ccccc2-3)cs1)c1ccccc1,-8%,-19%,4.4%,3
COc1cc(/C=C2\CCC(C)C3=C(c4cc(OC)c(OC)c(OC)c4)C(C#N)=C(N)OC32)cc(OC)c1OC (centres undefined),?,·,?,·
C/C(N)=C(/C#N)C(=O)CSc1cc(C)c2ccccc2n1,-1%,-24%,1.5%,3
CCn1c(C)nc2cc(C(=O)N/N=C/c3ccc(OC)cc3)ccc21,0%,3%,4.2%,-9
Cc1cnc(CN(C)C(=O)c2ccc3oc(Cc4ccccc4)nc3c2)[nH]1,9%,-7%,0.2%,·
C=CCC1NS(=O)(=O)OC2CCCC12 (centres undefined),1%,-3%,-1.3%,·
COc1ccc(CCNC(=O)c2noc3c2CCCC3)cc1OC,35%,-9%,0.4%,-2
CN(C(=O)c1ccccc1C(=O)OCC(=O)NC(=O)NC(C)(C)C)C1CCCCC1,22%,3%,-1.9%,10
N#C/C(C(=O)N1CCOCC1)=C1\Nc2ccccc2S1,-6%,-41%,4.4%,8
COc1ccc(N(CC(=O)Nc2cccnc2)S(=O)(=O)c2ccccc2)cc1Cl,-4%,-7%,0.1%,·
CN(NC(=O)CN1C(=O)c2ccccc2C1=O)C1=NS(=O)(=O)c2ccccc21,10%,2%,3.6%,-3
COC(=O)CCC(=O)Nc1ccc(NC(C)=O)cc1,-2%,-2%,0.4%,-25
O=C(NCc1ccco1)C1CCC(CNS(=O)(=O)c2cccc3cccnc23)CC1 (centres undefined),-11%,-5%,?,-4
CC1(C)CC(=O)C(C(c2cccc([N+](=O)[O-])c2)C2C(=O)CC(C)(C)CC2=O)C(=O)C1,22%,-13%,-3.8%,-20
COc1ccc(NC(=O)CSCC(=O)Nc2nnc(CC(C)C)s2)cc1,0%,·,2.1%,·
O=C1CN(C(=O)CSc2nc3ccccc3c(=O)n2CCCN2CCOCC2)c2ccccc2N1,-4%,0%,0.5%,-4
N#Cc1ccc(S(=O)(=O)NC2CC2)cc1,-6%,1%,1.4%,·
O=C(c1ccccc1)c1ccc(N2CCNCC2)cc1,·,-26%,·,-5
CC(NC(=O)Cn1cccc1)c1ccccc1 (centres undefined),10%,-1%,3.7%,·
CC(C)NC(=O)N(C)C[C@@H]1Oc2c(NC(=O)C3CCOCC3)cccc2C(=O)N([C@@H](C)CO)C[C@H]1C,27%,·,1.6%,·

# Source: PubChem BioAssay (National Center for Advancing Translational Sciences (NCATS))

# Some of the compounds tested; count on the stated rates, not on these rows.
